# T cruzi repl: T. cruzi replication inhibition; T. cruzi beta-gal in NIH3T3, luminescence, 90 h; inhibition, % (no concentration beside the values); 300,000 tested, 1.4% active;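 active = mean inhibition across valid replicates above about 55%, limit read from the data; inconclusive = mean below that limit but half or more replicates reach it; inactive = mean below it, under half of replicates reach it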;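 note: signal also drops with host cell toxicity which is not excluded here; 0% = plate median of DMSO wells and 100% = zero luminescence signal; higher percent means less beta-gal luminescence so fewer parasites; stock transfer was 50 nL into about 50 µL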
# Ecoli rRNA inh: selective bacterial rRNA inhibition in E. coli | 350,000 tested, 1.6% active | GFP signal change (wild-type ribosome), % (test concentration not listed) | AID 720706 | E. coli WT GFP vs humanized-ribosome RFP mutants, fluorescence, 24 h; active compounds read low; DMSO median 0, no signal -100;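 active = significant combined selectivity score with lowered wild-type GFP, culture density cut under 30%, mutant RFP and density less affected; inactive = any of these conditions unmet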; note: one replicate is shown; some compounds called inactive have numbers as strong as hits
# ALR H2O2 inh: inhibitors of human sulfhydryl oxidase ALR. P55789. purified ALR, DTT oxidation, H2O2 HRP-luminol luminescence. inhibition, % (no concentration beside the values). 290,000 tested, 3.8% active;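 active = mean and each replicate at 75% or more; inconclusive = only one of the two met; inactive = neither met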;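 note: stock transfer was 7.5 nL into about 7.5 µL; 0% = neutral wells and 100% = wells with inactivated enzyme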
# Target sequence (P55789 whole entry, looked up): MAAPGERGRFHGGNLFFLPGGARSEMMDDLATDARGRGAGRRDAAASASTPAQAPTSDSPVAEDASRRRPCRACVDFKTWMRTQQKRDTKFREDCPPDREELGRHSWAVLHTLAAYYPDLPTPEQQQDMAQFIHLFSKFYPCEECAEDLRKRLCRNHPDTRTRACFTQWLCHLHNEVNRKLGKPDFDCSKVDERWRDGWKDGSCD
# FGF22 binding: binders of recombinant human FGF22 by thermal shift; SYPRO orange fluorescence; percent of sucrose octasulfate shift, DMSO zero; AID 651658; 340,000 tested, 1.5% active; Q9HCT0; calls only at 9.99 µM;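 active = melting point raised past a set limit in the mean and every replicate; inconclusive = no clear call; three in four hits are not shown here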
# Target sequence (Q9HCT0 whole entry, looked up): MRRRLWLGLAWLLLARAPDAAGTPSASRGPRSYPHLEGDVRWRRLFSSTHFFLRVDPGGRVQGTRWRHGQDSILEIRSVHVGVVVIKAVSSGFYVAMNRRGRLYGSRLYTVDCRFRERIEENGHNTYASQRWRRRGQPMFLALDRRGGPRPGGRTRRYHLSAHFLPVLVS
# RanGTP-Impb inh: disruptors of Ran-importin-beta complex formation – biochemical, FRET, CFP-Ran, YFP-importin-beta, homogeneous, primary screen; cell-free CFP-Ran/YFP-importin-beta FRET ratio; inhibition, % (concentration not given with the values); 300,000 tested, 1.1% active; AID 2216;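 active = most replicates above 15%; inconclusive = exactly half above 15%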;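 note: 0% = DMSO wells and 100% = Ran loaded with GDP instead of GTP; wells of about 40 µL received 100 nL stock; the first replicate is given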
# Beta apoptosis: beta cell apoptosis inhibition; INS-1E cytokine-induced death, ATP luminescence, 48 h; percent of positive-control rescue, neutral wells zero; protection from apoptosis, % (test concentration not listed); 300,000 tested, 0.8% active; AID 435005;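 active = all replicates at 75% or more, or half of them and the mean; inconclusive = half reach 75% but not the mean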;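 note: 0% = cytokine-treated negative control wells and 100% = positive control rescue; higher means more ATP so stronger rescue from cytokine killing; wells of about 40 µL received 100 nL stock; the first replicate is given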
# Calb FLC: affects C. albicans growth with fluconazole | C. albicans CaCi-2 (fluconazole-resistant clinical isolate) + fluconazole, Alamar Blue growth, 48 h | growth inhibition, % (no concentration beside the values) | 300,000 tested, 0.57% active | AID 1979;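 active = most replicates above 75%; inconclusive = exactly half above 75%; inactive = most below 75%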;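 note: all wells also contain fluconazole at 8 µg/ml as a sub-toxic cotreatment; 0% = median of DMSO wells and 100% = median of geldanamycin control wells; wells of about 8 µL received 7.5 nL stock; the first replicate is given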
# AF4-AF9 inh: blocks AF4 peptide binding to human AF9. AlphaScreen, biotin-AF4 peptide binding to FLAG-AF9. inhibition, % at 10 µM. 350,000 tested, 0.47% active. P42568;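 active = every replicate reaching a set inhibition limit, whatever the replicate mean, cut at about 25% in these data; inconclusive = mean inhibition reaches that limit but some replicates miss it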;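 note: 0% = plate neutral control median and 100% = total signal loss; the record names both 10 and 1 µM as test concentration; the first replicate is given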
# Target sequence (P42568 whole entry, looked up): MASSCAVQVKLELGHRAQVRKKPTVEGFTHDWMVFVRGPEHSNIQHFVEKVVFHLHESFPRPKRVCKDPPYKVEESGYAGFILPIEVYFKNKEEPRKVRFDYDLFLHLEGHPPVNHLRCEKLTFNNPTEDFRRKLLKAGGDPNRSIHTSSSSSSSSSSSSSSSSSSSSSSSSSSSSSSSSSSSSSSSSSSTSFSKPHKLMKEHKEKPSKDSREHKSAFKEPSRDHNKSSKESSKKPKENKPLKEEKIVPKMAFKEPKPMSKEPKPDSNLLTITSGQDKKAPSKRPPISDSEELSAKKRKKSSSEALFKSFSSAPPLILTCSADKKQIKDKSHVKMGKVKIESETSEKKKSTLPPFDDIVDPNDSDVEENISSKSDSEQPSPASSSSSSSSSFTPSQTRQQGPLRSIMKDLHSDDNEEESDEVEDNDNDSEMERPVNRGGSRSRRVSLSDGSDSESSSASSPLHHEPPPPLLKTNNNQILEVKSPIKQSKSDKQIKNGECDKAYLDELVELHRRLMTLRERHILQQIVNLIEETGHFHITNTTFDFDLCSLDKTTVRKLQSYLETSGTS
# Ecoli rRNA inh OD600: also measured in Ecoli rRNA inh; calls as there; OD600 change, %; measured here: OD600 growth;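 optical density of the mix in the first replicate; 0 = DMSO median and -100 = no signal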
# Ecoli rRNA inh RFP: also measured in Ecoli rRNA inh; calls as there; RFP signal change, %; measured here: RFP humanized mutant strains;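 first replicate; 0 = DMSO median and -100 = no signal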
# Active calls of the source: *; i = inactive; ? = inconclusive; . = not tested or not shown.
SMILES,T cruzi repl,Ecoli rRNA inh,Ecoli rRNA inh OD600,Ecoli rRNA inh RFP,ALR H2O2 inh,FGF22 binding,RanGTP-Impb inh,Beta apoptosis,Calb FLC,AF4-AF9 inh
Cn1c(SCC(=O)NCc2cccs2)nnc1-c1ccc(O)cc1,-1,12,15,0.6,-15,i,-0.8,.,0,-1.4
CN(Cc1ccccc1)C(=O)N1CCOCC1,-18,17,11,-3.2,-8,i,6.4,-17,3,3.4
Cc1cccc(C(=O)N2CCN(c3ccc(C(F)(F)F)cn3)CC2)c1C,15,.,.,.,-8,.,1.5,-13,42,.
CCOC(=O)c1ccc(NC(=O)CCc2nc(-c3ccccc3Cl)no2)cc1,35,.,.,.,-9,.,-1.5,-3,-27,.
Nc1nc(F)nc2c1ncn2[C@@H]1O[C@H](CO)[C@@H](O)[C@H]1O,44,.,.,.,-13,i,-3.0,94*,.,-5.6
Cc1ccc(CSc2nnc(-c3ccc(NS(=O)(=O)c4ccccc4)cc3)o2)cc1,3,.,.,.,-18,.,3.2,3,20,.
CCCc1cc(=O)n2c([nH]c3ccccc32)c1C#N,11,.,.,.,.,.,-3.3,24,26,.
CCCCOc1ccc(/C=N/Nc2cc(N3CCOCC3)nc(C)n2)cc1,56*,5,-1,10.0,28,i,4.9,3,33,11
O=C(NC1CCN(Cc2ccccc2)CC1)c1ccc2c(c1)[nH]c(=O)n2Cc1ccc(F)cc1,58*,-32*,-16*,5.5*,-9,i,-0.4,17,-15,8.0
O=C(NNC(=O)C1CCN(c2ncccn2)CC1)c1ccncc1,-1,8,5,2.8,.,i,2.7,-4,19,-0.6
CCOC(=O)Nc1csnn1,-18,4,11,0.9,.,i,-0.6,.,0,-1.7
CC(=O)N[C@H]1C[C@@H]1c1ccccc1,-3,.,.,.,-8,.,0.3,-10,8,.
O=C(COc1cccc2cccnc12)N/N=C/c1cccn1-c1ccc(F)cc1,12,-41*,-1.4*,-0.2*,.,i,3.6,3,-1,22
COc1ccc(-c2nc(C#N)c(N3CCOCC3)o2)cc1OC,-5,.,.,.,-8,.,1.9,6,4,.
Cc1nn(-c2ccccc2)c(C)c1CCC(=O)O,-8,.,.,.,0,.,1.8,.,-12,.
COc1ccc(N2CCN(CCCNC(=O)Cn3c(=O)c4cccn4c4cccnc43)CC2)cc1,0,1,6,-1.5,62,i,-1.0,-2,4,22
COC(=O)CN(c1cc(Cl)ccc1OC)S(=O)(=O)c1ccc(C)cc1,-13,-38,-50,-8.8,.,i,9.1,-3,16,11
O=[N+]([O-])c1ccc(C(O)CNC(=S)Nc2ccccc2)cc1 (stereo not given),-16,-2,3,1.0,-12,i,3.2,-7,12,4.8
Cc1ccc(NC(=O)CCSCCC(=O)Nc2ccc(C)c(C)c2)cc1C,-10,.,.,.,3,.,-0.3,-13,-5,.
COc1ccc(N2CCCC2)c(NC(=O)COc2ccccc2Cl)c1,7,6,4,0.8,-12,i,?,.,2,2.7
Cc1sc2nc(C)n(/N=C/c3ccccc3O)c(=O)c2c1C,-3,.,.,.,0,.,2.9,1,-1,.
CC1CCC(C(=O)NC(C(=O)NCCc2ccc(S(N)(=O)=O)cc2)C(C)C)CC1 (stereo not given),-13,8,26,0.7,5,i,-1.0,-4,-1,-3.6
CN(C)CC(O)COC(c1ccccc1)c1ccccc1 (stereo not given),-8,13,0,-6.8,0,i,0.9,-13,-4,-1.1
COc1ccc(N2CC(=O)N(c3ccccc3)C2=S)cc1,-16,-2,3,2.3,.,i,0.4,-4,-14,1.4
CC(=O)Nc1sc(NC(=O)c2ccccc2)nc1-c1cccs1,-11,10,14,5.7,98*,i,-2.0,-2,6,-25

# Full records, quoted from the list. Order of values: T cruzi repl, Ecoli rRNA inh, Ecoli rRNA inh OD600, Ecoli rRNA inh RFP, ALR H2O2 inh, FGF22 binding, RanGTP-Impb inh, Beta apoptosis, Calb FLC, AF4-AF9 inh
# Nc1nc(F)nc2c1ncn2[C@@H]1O[C@H](CO)[C@@H](O)[C@H]1O as listed: 44, ., ., ., -13, i, -3.0, 94*, ., -5.6
# COc1ccc(N2CC(=O)N(c3ccccc3)C2=S)cc1 as listed: -16, -2, 3, 2.3, ., i, 0.4, -4, -14, 1.4
# O=C(COc1cccc2cccnc12)N/N=C/c1cccn1-c1ccc(F)cc1 as listed: 12, -41*, -1.4*, -0.2*, ., i, 3.6, 3, -1, 22
# Cc1cccc(C(=O)N2CCN(c3ccc(C(F)(F)F)cn3)CC2)c1C as listed: 15, ., ., ., -8, ., 1.5, -13, 42, .

# Additional structures follow.
SMILES,T cruzi repl,Ecoli rRNA inh,Ecoli rRNA inh OD600,Ecoli rRNA inh RFP,ALR H2O2 inh,FGF22 binding,RanGTP-Impb inh,Beta apoptosis,Calb FLC,AF4-AF9 inh
COc1ccc(C(=O)Nc2ccc(/C(C)=N/NC(=O)c3ccncc3)cc2)cc1,-3,16,12,-1.4,-3,.,-0.2,-6,-2,-1.3
CCCc1cc(=O)[nH]c(SC(C)C(=O)Nc2ccc3c(c2)OCCO3)n1 (stereo not given),.,.,.,.,?,i,.,4,.,3.9
O=C(CCNc1cc(Cl)cc(Cl)c1)c1cccs1,13,.,.,.,1,.,-2.4,1,12,.
COc1cccc(C2=CC(=O)CCC2)c1OC,-1,17,8,-6.0,-2,i,-1.0,-8,-4,-2.5
CCCCC(=O)NC1(C(F)(F)F)NC(=O)N(C)C1=O (stereo not given),-17,12,5,-1.8,-6,i,2.9,-6,6,-2.0
CN(NS(C)(=O)=O)c1c(C#N)c(C(F)(F)F)nn1C,-10,4,0,-1.0,-7,i,?,-3,-1,-2.5
Cc1ccc(CNC(=O)Cn2c(=O)n(CC(=O)N3CCCCC3)c(=O)c3sccc32)cc1,-9,-1,8,-3.2,-4,i,3.2,-3,-1,-2.8
CCN(CC)c1ccc(C(=O)c2ccccc2C(=O)O)c(O)c1,6,.,.,.,1,.,0.8,-6,-12,.
Cc1cccc(/C=N/NC(=O)c2ccc3c(c2)OCCO3)c1O,45,-35,-50,-15,14,i,5.0,94*,21,6.0
CCCn1c(SCC(=O)NC2CCCCC2C)n[nH]c1=O (stereo not given),8,.,.,.,-2,.,-1.4,1,-1,.
CC1Cc2nc(SCC(=O)Nc3ccc4c(c3)OCO4)n(-c3ccc(F)cc3)c(=O)c2S1 (stereo not given),9,-1,6,0.0,-1,i,2.4,-3,6,10
COc1cccc2cc(C(=O)c3ccc([N+](=O)[O-])cc3)oc12,7,9,5,0.8,-8,i,5.4,0,-16,0.6
Cc1ccc(-n2nc(C)c(NS(=O)(=O)c3ccccc3)c2C)cc1C,-9,.,.,.,3,.,36*,1,67,.
CCCCN=C(C)c1c(O)c2ccccc2oc1=O,4,.,.,.,-1,.,2.2,-1,1,.
CC(CC(=O)NCCc1ccc(S(N)(=O)=O)cc1)c1ccccc1 (stereo not given),-9,16,9,-1.0,-18,i,11,-2,31,-15
CCN1CCN(C(=O)c2ccccc2N(Cc2ccccc2)S(=O)(=O)c2ccc(C)cc2)CC1,5,.,.,.,2,.,-3.3,-3,-12,.
O=C1[C@@H]2[C@@H]3C[C@@H]([C@H]4ON=C(c5ccc(Cl)cc5)[C@@H]34)[C@@H]2C(=O)N1c1ccc2c(c1)OCO2,5,.,.,.,-68,i,2.3,50,6,-7.0
CCN(CC)CCCNC(=O)c1cc2c(=O)n(CC)c3ccccc3c2s1,9,0,9,2.1,.,i,-0.3,7,-10,1.6
CCC(C)C(NC(=O)/C(=C\c1ccccc1)NC(=O)c1ccc(OC)cc1)C(=O)O (stereo not given),-9,6,7,0.4,-1,i,1.7,-1,2,-2.5
CCOC(=O)C1CCCN(c2c(N3CCOCC3)c(=O)c2=O)C1 (stereo not given),-5,15,9,-2.0,-6,i,-1.6,-9,2,1.2
O=C(CCCCCn1c(=S)[nH]c2ccc(Br)cc2c1=O)NCC1CCCO1 (stereo not given),-6,.,.,.,28,.,-0.4,1,-3,.
O=C(CN1CCN(Cc2ccccc2Cl)C1=O)N1CCCCCC1,3,.,.,.,4,.,-1.2,-2,-14,.
COc1ccc(OC)c(-c2csc(NC(=O)CSCc3c(C)noc3C)n2)c1,0,5,8,3.6,98*,i,-0.6,1,15,-0.6
CCc1nn2c(N3CCOCC3)cc(C)nc2c1-c1ccc(F)cc1,7,.,.,.,-2,.,1.3,2,2,.
COc1ccc(CCN2C(=O)CC(Sc3ncccc3C(=O)O)C2=O)cc1OC (stereo not given),-12,.,.,.,-13,.,5.2,5,2,.
# The list continues.
SMILES,T cruzi repl,Ecoli rRNA inh,Ecoli rRNA inh OD600,Ecoli rRNA inh RFP,ALR H2O2 inh,FGF22 binding,RanGTP-Impb inh,Beta apoptosis,Calb FLC,AF4-AF9 inh
O=C1c2ccccc2C(=O)N1CC1c2ccccc2CCN1S(=O)(=O)c1cnc[nH]1 (stereo not given),11,.,.,.,.,.,-2.4,-16,-12,.
CC1(C)CC(NC(=O)C23CCC(C)(C(=O)C2=O)C3(C)C)CC(C)(C)N1 (stereo not given),-17,6,2,-0.8,15,i,3.4,-3,0,-0.1
CCOc1cc(C(=O)Nc2ccc(N3CCN(C(C)=O)CC3)cc2)cc(OCC)c1OCC,2,5,10,-0.1,.,i,-2.2,4,0,-1.6
COCCNC(=O)C(OC(=O)C1=Cc2ccccc2OC1)C(C)C (stereo not given),-1,10,1,-0.4,-9,i,2.2,-3,-2,-2.5
O=C(Nc1ccc2c(c1)OCCO2)c1ccncc1,-2,.,.,.,-4,.,-2.1,0,1,.
C#CCOCCOCCOCCNc1nc(N2CCOCC2)nc(N2CCN(C(=O)[C@H](CC(N)=O)n3cc([C@@H](N)C(C)C)nn3)CC2)n1,.,5,1,-2.7,-1,i,.,2,.,-4.0
Cc1c(Cl)cccc1N(Cc1ccc(C(=O)O)cc1)S(=O)(=O)c1ccccc1,2,-38,-45,-11,1,.,1.7,7,-11,-6.6
COc1cc(NC(=O)c2cc(-c3ccc4c(c3)OCO4)on2)cc(OC)c1OC,59*,-1,6,0.3,.,i,-3.8,-4,-11,-0.2
COC(=O)c1ccc(NC(=O)c2ccc3nccnc3c2)cc1,-3,5,8,-2.7,.,i,-0.5,-1,-3,-1.6
O=C1c2ccccc2C(=O)C2OC12 (stereo not given),2,.,.,.,-131,.,4.7,-49,3,.
COc1ccc(Cc2nnc(NC(=O)c3ccc(OC)c(OC)c3)s2)cc1OC,-14,-6,12,-11,.,i,-1.0,-10,37,-1.5
Cc1ccc(CNS(=O)(=O)c2ccc(-c3cnc(C4CC4)o3)cc2)cc1,-15,-1,1,0.3,-1,i,2.9,-6,9,-0.6
CCN1C(=O)N(c2ccc(C(C)=O)cc2)S(=O)(=O)c2ccccc21,-1,1,1,-4.3,.,i,1.2,.,1,3.4
COc1ccccc1-c1ccc(SCC(=O)NCc2ccc3c(c2)OCO3)nn1,-2,-25,-22,0.8,-5,i,-5.6,-3,9,-0.4
COc1ccc(-c2sc(Nc3ccccc3)n[n+]2-c2ccc(F)cc2)c(C)c1C,15,-11,-26,6.6,20,i,2.0,-2,-24,19
O=C(CN1C(=O)c2ccccc2S1(=O)=O)NCCSCc1cccc(Cl)c1,-6,-17,-16,5.2,5,i,3.1,-2,13,-0.3
CC(COc1ccc(C(C)C)cc1)NC(=O)c1ccc(Br)o1 (stereo not given),8,-48,-73,-6.3,-9,i,2.2,6,-2,-0.1

# These rows are one share of the data (hit frequency here may not be typical).
